# Source: PubChem
# VCAM-1 up: boosters of cytokine-driven VCAM-1 levels – cell-based, plate reader, pooled HUVEC, TNFa stimulus (AID 455); HUVEC TNFa-induced VCAM-1 immunofluorescence, plate reader; numbers were filed only for top-ranked candidate wells; augmentation, % at 5 µM; 10,000 compounds, 0.2% hits;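 active = a compound raising TNF-alpha-driven VCAM-1 surface staining, with its hit status upheld on visual or statistical review; inactive = the rest, including hits rejected on review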;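 also: 0% = TNFa with vehicle and 100% = strongest image-checked hit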
# Proteasome disasm: blocks ATP-dependent breakdown of the yeast 26S proteasome; anti-FLAG beads, GFP-proteasome disassembly, flow cytometry; inhibition of disassembly, % (test concentration not listed); 24,000 compounds, 0.2% hits; AID 751;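 active = above 40%; inconclusive = likely self-fluorescent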;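 also: plate controls were ATP control with full disassembly for no effect and ATP-gamma-S intact proteasomes for full effect; higher percent means more bead fluorescence retained so stronger block of disassembly; stock transfer was 100 nL into about 10 µL; wells with too few beads may also be inconclusive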
# * hit, by the source's call; i = inactive; ? = inconclusive; . = no result given. Some of the compounds tested; rates above refer to the full screens.
VCAM-1 up,Proteasome disasm,SMILES
i,-1.4,O=C(NC1CCCCC1)C1CC(O)CN1C(=O)OCc1ccccc1 (stereo unspecified)
i,0.3,COC(=O)CSc1nnc(-c2ccc(OC)cc2OC)o1
.,1.8,CC1Cc2nc(SCC(=O)Nc3ccc4c(c3)OCCO4)n(C)c(=O)c2S1 (stereo unspecified)
.,-0.1,Cn1c(C(=O)NCC2CCCO2)cc2c(=O)n3ccccc3nc21 (stereo unspecified)
.,-0.8,CCC1SC2=NCN(c3ccccc3)CN2C1=O (stereo unspecified)
i,0.6,NC(=O)OCC(COC(N)=O)c1ccccc1
.,-0.5,CC1CCCCC1NC(=O)C1Cc2ccccc2CN1S(C)(=O)=O (stereo unspecified)
.,0.7,N#CC1=C2SCN(c3ccccc3)CN2C(=O)CC1c1c(Cl)cccc1Cl (stereo unspecified)
.,0.7,CCOc1cccc(C(=O)Nc2cc(-c3nn4c(C)nnc4s3)ccc2C)c1
.,0.3,Cc1ccc(-c2nnc(SCC(=O)N3CCCC3)o2)cc1C
.,-0.2,CCn1cc(C(=O)NCc2ccc(C)o2)c2cc(OC)c(OC)cc2c1=O
.,-1.0,CSC1=NCCN1C(=O)COc1ccccc1
i,-3.3,CCn1c(=S)sc2nc(C)sc21
.,2.6,Cc1ccc(CCNC(=O)C2CCN(c3nn4c(=O)cc(C)nc4s3)CC2)cc1
.,-0.8,COC(=O)c1nnn(-c2nonc2N)c1-c1cccs1
i,0.2,CC(=O)Oc1cc(C(C)C)c(OCCN(C)C)cc1C
.,-2.0,COc1ccc(C)cc1NC(=O)c1cnc2n(c1=O)CCS2
i,-0.2,Cc1ccc2c(c1)c1c(n2CC(O)Cn2c(C)nc3ccccc32)/C(=N\O)CCC1 (stereo unspecified)
.,-0.5,CNC(=O)c1ccc2snnc2c1
.,0.1,O=C(CCn1c(=O)sc2ccccc21)NCCC1=CCCCC1
.,-1.2,O=C(Cn1cnc2c(nnn2Cc2ccc(F)cc2)c1=O)NCC1CCCO1 (stereo unspecified)
i,-0.3,CCC(=O)Nc1cc(Cl)ccc1N1CCN(C(=O)CC)CC1
.,-0.4,Cc1ccnc(N2C(=O)c3ccccc3C2Nc2ccccc2Cl)c1 (stereo unspecified)
.,0.4,Cc1ccc2c(c1)N(CCCC(=O)NCc1ccc3c(c1)OCO3)C(=O)CO2
i,0.9,CCOC(=O)Cn1ncc(-c2ccccc2)c1N
i,0.5,C[C@]12CC[C@@H]3c4ccc(O)cc4CC[C@H]3[C@@H]1CCC2=O
.,-1.2,Cc1cc(NC(=O)c2noc3c2CCCC3)n(-c2ccccc2)n1
i,0.2,COc1ccc(NC(=O)CN(c2cc(C)cc(C)c2)S(=O)(=O)c2c(C)noc2C)cc1OC
i,-0.3,COc1ccc(NC(=O)CSc2nnc(Cc3cccn3C)n2-c2ccc(F)cc2)cc1
i,-0.4,Cc1cc(N2CCN(c3ccccn3)CC2)n2nc(C)nc2n1
i,-0.3,COC(=O)Nc1sc2c(c1C(=O)N1CCOCC1)CCC(C)C2 (stereo unspecified)
.,-2.3,COc1cccc(-n2c(Cc3cc(=O)[nH]c(=O)[nH]3)nnc2SCC(=O)NC2CCCC2)c1
.,0.3,COc1nonc1NCn1nc(C)cc1C
.,-0.5,c1ccc2c(c1)CCCn1nnnc1-2
.,0.1,COc1cccc(C(=O)Oc2cc(N)n(S(=O)(=O)c3ccc(C)cc3)n2)c1OC
.,-0.3,O=C(NCc1cccnc1)c1cc(-c2cccs2)on1
.,-1.1,CCCS(=O)(=O)N1CCN(Cc2ccco2)CC1
.,-1.1,Cc1ccc(-c2noc(CSc3nc(N)cc(N)n3)n2)cc1
i,2.0,O=S(=O)(c1ccc2c(c1)OCCO2)N1CCC(n2nnc3cc(F)ccc32)CC1
.,0.4,COc1ccc(-c2noc(CCC(=O)NCCN(C)Cc3ccccc3)n2)cc1
.,-0.3,COc1cccc(C(=O)CN2CCN(S(=O)(=O)c3ccc(Br)cc3)CC2)c1
.,-1.7,O=C(NC1CCCC1)C1CCN(S(=O)(=O)c2cccc3cccnc23)CC1
i,-2.3,CCOC(=O)C1CCN(S(=O)(=O)c2cc(Cl)c(C)cc2OC)CC1
i,1.3,CCCOC(=O)c1[nH]c2c(c1C)C(=O)CC(c1ccc(OC)c(OC)c1)C2 (stereo unspecified)
.,-1.0,Cc1cc(NC(=O)CSc2nc3ccsc3c(=O)n2Cc2ccccn2)n[nH]1
.,-0.2,CCN1C(=O)c2cccc3c(S(=O)(=O)Nc4ccc(OC)cc4OC)ccc1c23
i,-0.2,O=c1c2ccccc2nc(SCc2nc(-c3ccccc3)no2)n1-c1ccc(F)cc1
i,-1.4,CCn1cc(C2Nc3ccccc3C(=O)N2O)c(C)n1 (stereo unspecified)

# Among those listed so far, these have fluorine:
VCAM-1 up,Proteasome disasm,SMILES
.,-1.2,O=C(Cn1cnc2c(nnn2Cc2ccc(F)cc2)c1=O)NCC1CCCO1 (stereo unspecified)
i,-0.3,COc1ccc(NC(=O)CSc2nnc(Cc3cccn3C)n2-c2ccc(F)cc2)cc1
i,2.0,O=S(=O)(c1ccc2c(c1)OCCO2)N1CCC(n2nnc3cc(F)ccc32)CC1
i,-0.2,O=c1c2ccccc2nc(SCc2nc(-c3ccccc3)no2)n1-c1ccc(F)cc1

# Additional entries follow:
VCAM-1 up,Proteasome disasm,SMILES
.,0.3,CCS(=O)(=O)N1CCCC(C(=O)NCCCOC)C1 (stereo unspecified)
i,0.7,CCOC(=O)CSc1nnc(NCC(=O)OC(C)C)c(=O)[nH]1
.,-0.4,CSC1=NCCN1C(=O)c1c(F)cccc1F
i,7.9,COc1cc2cc(C(c3nnnn3C3CCCC3)N3CCCCCC3)c(=O)[nH]c2cc1OC (stereo unspecified)
.,1.6,COC(=O)c1nc2n(n1)C(c1ccccc1OC)C1=C(CCCC1=O)N2 (stereo unspecified)
i,10,Cc1cc(=O)n2nc(N3CCCC(C(=O)N4CCc5ccccc54)C3)sc2n1 (stereo unspecified)
i,-1.2,COCCn1c(C)cc(C(=O)CSc2nc3ccccc3c(=O)[nH]2)c1C
.,0.5,Nc1nnc(N2CCCCCC2)s1
i,-0.9,Cc1cccc(NC(=O)c2cc3n(n2)C(C(F)(F)F)CC(c2ccc4c(c2)OCO4)N3)c1 (stereo unspecified)
.,-0.8,CC(=O)Nc1ccc(NC(=O)c2cccc(C(=O)OC(C)C)n2)cc1
i,0.8,CCOC(=O)c1c(NC(=O)c2ccn(CC)n2)sc2c1CCCC2
.,1.6,COc1cc(OC)cc(C(=O)N2CCN=C2SCc2cccnc2)c1
.,-0.7,CSCCC1(C(=O)O)NC(c2ccccc2O)C2C(=O)N(C(C)C)C(=O)C21 (stereo unspecified)
.,-1.5,CN(CCNC(=O)C1CCN(S(=O)(=O)N2CCOCC2)CC1)CCc1ccccc1
i,-0.6,O=C(NCCN1CCOCC1)C1CC(=O)N(c2ccc(F)c(Cl)c2)C1 (stereo unspecified)
.,-5.1,N=c1nc(-c2ccccc2)ccn1O
.,0.8,O=C(CCS(=O)(=O)c1cccc2nonc12)NCCc1ccccc1Cl
.,-0.1,Cc1ccc(S(=O)(=O)C2(C(=O)Nc3ccc(F)cc3)CC2)cc1
i,1.8,COc1ccc(OC)c(NC(=O)CCN2CCN(c3ccccc3F)CC2)c1
i,1.0,C=CCn1cnc2c(NCc3ccccc3)ncnc21
.,-1.4,CCOC(=O)c1cccc(NC(=O)CCNS(=O)(=O)c2ccc3c(c2)CCN3C(=O)CC)c1
i,-0.7,CCn1c(=O)c2cc(S(=O)(=O)NCc3ccccc3)ccc2n(CC)c1=O
.,0.5,COc1ccc2[nH]cc(CCNC(=O)C3CCCNC3=O)c2c1 (stereo unspecified)
i,-1.1,Cn1c(CN2CCOCC2)nc2cc(NC(=O)c3ccccc3Cl)ccc21
i,3.2,Cc1nnc(N2C(=O)C(O)=C(C(=O)c3ccco3)C2c2ccc(F)cc2)s1 (stereo unspecified)
.,2.3,CCOc1cc2[nH]c(=S)n(Cc3ccc(C)o3)c(=O)c2cc1OCC
i,-1.4,O=C(c1ccc2c(c1)OCO2)N1CCCN(C(=O)c2ccc3c(c2)OCO3)CC1
.,-0.3,CCOC(=O)c1c(CN2CCCCC2)n(C)c2ccc(OC)c(S(=O)(=O)c3ccccc3)c12
i,0.3,C=Cn1c(N2CCOCC2)nc2c1c(=O)[nH]c(=O)n2C
i,-0.1,C=CCn1c(COc2ccccc2)nnc1SCC(=O)C(C)(C)C
i,6.3,Cn1c(=O)c2c(nc(CN3CCCCC3)n2CCCc2ccccc2)n(C)c1=O
i,0.1,Cc1cc(N2CCOCC2)nc2ccc(NC(=O)C3CCC(C)CC3)cc12 (stereo unspecified)
.,1.9,Cc1ccc2cc(CCNC(=O)c3ccco3)c(=O)[nH]c2c1
i,1.2,COCCn1nnnc1C(c1cccs1)N1CCN(c2cc(C)ccc2C)CC1 (stereo unspecified)
.,-1.4,CC(C)CN(CC(C)C)S(=O)(=O)N1CCC(C(=O)NC2CCCCCCC2)CC1
i,-0.1,O=S(=O)(c1ccc(Oc2ccc(-c3nnco3)cc2)nc1)N1CCC(Cc2ccccc2)CC1

# In another format: entries from further up.
> Cc1cc(N2CCOCC2)nc2ccc(NC(=O)C3CCC(C)CC3)cc12 (stereo unspecified)
  VCAM-1 up = i
  Proteasome disasm = 0.1

> Cc1ccc2cc(CCNC(=O)c3ccco3)c(=O)[nH]c2c1
  VCAM-1 up = .
  Proteasome disasm = 1.9

> COCCn1nnnc1C(c1cccs1)N1CCN(c2cc(C)ccc2C)CC1 (stereo unspecified)
  VCAM-1 up = i
  Proteasome disasm = 1.2

# Carrying on:
VCAM-1 up,Proteasome disasm,SMILES
.,-0.2,CCOC(=O)N1CCN(C(=O)CS(=O)Cc2nc(-c3ccc(C)cc3)oc2C)CC1 (stereo unspecified)
.,0.5,O=C(NCC12CC3CC(CC(C3)C1)C2)c1nc2ncccn2n1
.,1.5,O=c1cc(Nc2ccc3c(c2)OCCO3)[nH]c(=O)n1-c1ccc(Br)cc1
i,-0.4,CN(C)CCCN1C(=O)c2oc3ccc(Cl)cc3c(=O)c2C1c1cccnc1 (stereo unspecified)
i,-0.9,Cc1nnc(SCC(=O)N2c3ccccc3CC2C)s1 (stereo unspecified)
.,2.7,CCc1ccc(S(=O)(=O)NCCc2csc(-c3ccccc3)n2)s1
.,-1.0,CCOc1ccccc1NC1c2ccccc2C(=O)N1Cc1ccco1 (stereo unspecified)
.,1.5,Cc1noc(/C=C/N(C)C)c1S(=O)(=O)N1CCCC(C(=O)NC2CCCCC2C)C1 (stereo unspecified)
.,-0.7,CCOC(=O)N1CCN(c2c(NC3CCN(Cc4ccccc4)CC3)c(=O)c2=O)CC1
i,0.7,COC(=O)c1c(O)ccc(Oc2ccccc2)c1C(=O)OC
.,-1.2,COC(=O)CSC1=C(C#N)C(c2cccc(F)c2)CC(=O)N1 (stereo unspecified)
i,0.3,CN(C)c1ccc(C(=O)Nc2nnc(-c3ccc(Cl)cc3)o2)cc1

# The last 2 compounds of the section above open the next one.
VCAM-1 up,Proteasome disasm,SMILES
.,-1.2,COC(=O)CSC1=C(C#N)C(c2cccc(F)c2)CC(=O)N1 (stereo unspecified)
i,0.3,CN(C)c1ccc(C(=O)Nc2nnc(-c3ccc(Cl)cc3)o2)cc1
i,-1.1,COc1cc(NC(=O)C2CCCN2S(=O)(=O)c2cccc3cccnc23)cc(OC)c1OC (stereo unspecified)
.,-2.3,COc1ccc(NC(=O)CCS(=O)(=O)c2ccc3c(c2)CCCN3C(C)=O)cc1
.,-1.0,COC(=O)C1C2C=CC3(CN(C(C)C)C(=O)C13)O2 (stereo unspecified)
.,1.3,CCn1cc(C(=O)O)c(=O)c2cc(S(=O)(=O)N(C)C)ccc21
.,-0.7,CCS(=O)(=O)N1CCC(C(=O)NCCC2=CCCCC2)CC1
.,0.1,O=C(C1CCN(c2ncnc3c2sc2cccc(F)c23)CC1)N1CCOCC1
.,-1.4,CCC(C)(C(=O)NC1CCCC1)N(C(=O)CNC(C)=O)c1ccccc1 (stereo unspecified)
.,3.6,O=C1N(CN2CCN(c3cccc(Cl)c3)CC2)c2ccccc2C12OCCCO2
.,0.8,CCSc1ccc2nnc(-c3cccc(F)c3)n2n1
i,-1.8,Cc1ccc2nc(NCCCN3CCOCC3)c(C=NCCCN3CCOCC3)c(=O)n2c1
i,-1.2,O=C(Nc1ccc(Cl)c(Cl)c1)Nc1cc(C(=O)N2CCOCC2)ccc1N1CCCCC1
.,-1.5,CC#CCCCC(=O)Nc1ccc(C(=O)O)cc1
.,-2.9,O=c1cc(N2CCOCC2)[nH]c(=O)n1C1CCCCC1
.,-1.0,O=C(NCCc1c[nH]c2ccccc12)C(F)(F)C(F)F
.,0.5,Cc1cc(NC(=O)NC2(C(F)(F)F)Oc3ccc(Cl)cc3O2)no1 (stereo unspecified)
i,2.3,CCn1nnnc1SCC(=O)Nc1nc(-c2cccs2)cs1
i,1.5,CN=C(C)C1=C(O)C(C(=O)OC)C(C)(C)CC1=O (stereo unspecified)
i,-0.2,CCOC(=O)N1CCN(C(=O)CN2C(=O)COc3ccc(C)cc32)CC1
.,-0.2,COCc1ccc2oc(C(=O)O)cc2c1
i,0.1,CCc1cc2c(CN3CCN(CCO)CC3)cc(=O)oc2cc1O
i,0.7,NC(N)=Nc1nc(CSCC/C(N)=N/S(N)(=O)=O)cs1
.,-0.3,Cc1cc(Nc2cc(F)ccc2C)n2nc(C)nc2n1
i,2.3,CCn1c(C(=O)N2CCC(C(=O)NCc3ccc4c(c3)OCO4)CC2)cc2sccc21
i,?,CCCc1cc(-n2ccnc2)n2c(nc3ccccc32)c1C#N
i,0.4,CCCCOC(=O)CN1C(=O)c2ccc(C(=O)OCCCC)cc2C1=O
.,1.5,Cn1c(C(=O)NCCCN2CCCCC2)cc2sccc21
.,-0.3,O=C(NCCCN1CCOCC1)c1csc2c1CCCC2
